PINK1 modulator: A Quantitative High throughput Screen to Identify Chemical Modulators of PINK1 Expression; AID 624263, 2012; Potency, µM (series often up to 76.6 µM), for inactives: at the highest dose activation (PINK1 increase), actives largely listed as activators; hit rate 0.2% among 410,000; PINK1 immunofluorescence, high-content cytometry, 24 h; active = well fitted activation curve with a large enough effect; inconclusive = small, poorly fitted or top-dose-only effect; inactive = flat fitted curve, though single readings scatter; cell line not stated here;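 also: % of control where 0% means no effect; nearly all actives have a fitted effect of over 65% in size; a mitochondrial uncoupler was the plate control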
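Stable cell line, 250 cells/well, 12 h attachment; compounds pinned at 5 concentrations, 24 h; CCCP control. Fixed with nuclear dye, primary antibodies 12 h at 10 degrees C, secondary plus cell stain; laser-scanning cytometer read.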
* hit, by the source's call. Potency is read from the fitted curve at half-maximal effect. Only part of the results is shown, so the mix of outcomes need not match the whole.

Start of the listing, in advance:
No. | molecule | PINK1 modulator
1 | COc1ccc2c(c1)CCc1cnc(-n3ncc(C(=O)NCCN4CCOCC4)c3C)nc1-2 | 1.4%
2 | COc1ccc(-c2cc(C(=O)N3CCc4c(cnc(C)c4CNC(=O)c4ccsc4)C3)[nH]n2)cc1 | 1.1%
3 | CCOC(=O)CCc1cnccc1-c1cccc(OC)c1O | -0.2%
4 | Cc1ccc(C)c(OCCn2c(CCNC(=O)C3CCCCC3)nc3ccccc32)c1 | -0.5%
5 | COc1cc(OC)c2nc(-c3cc4c(c(OC)c3)OCCN(Cc3cn(C)nc3C)C4)cc(C)c2c1 | 0.8%

Results, previewed entries included:
No. | molecule | PINK1 modulator
1 | COc1ccc2c(c1)CCc1cnc(-n3ncc(C(=O)NCCN4CCOCC4)c3C)nc1-2 | 1.4%
2 | COc1ccc(-c2cc(C(=O)N3CCc4c(cnc(C)c4CNC(=O)c4ccsc4)C3)[nH]n2)cc1 | 1.1%
3 | CCOC(=O)CCc1cnccc1-c1cccc(OC)c1O | -0.2%
4 | Cc1ccc(C)c(OCCn2c(CCNC(=O)C3CCCCC3)nc3ccccc32)c1 | -0.5%
5 | COc1cc(OC)c2nc(-c3cc4c(c(OC)c3)OCCN(Cc3cn(C)nc3C)C4)cc(C)c2c1 | 0.8%
6 | OCCNc1nc(Nc2ccccc2Oc2ccccc2)nc(N2CCCC2)n1 | 5.9%
7 | COc1ccc(-c2nc(N3CCN(S(=O)(=O)c4ccccc4)CC3)c3ccccc3n2)cc1 | -0.9%
8 | CCC(O)CNC(=O)c1cnn(-c2nccc(-c3cc(C)sc3C)n2)c1C1CC1 (stereo not given) | 4.8%
9 | Cc1ccsc1CN1CCc2nnc(CCNC(=O)c3ccc(F)cc3)n2CC1 | 1.2%
10 | COc1ccc(N2CCN(C(=O)c3cc(NC(C)=O)c4c(c3)ncn4CCc3ccccn3)CC2)cc1 | 0.2%
11 | COc1ccc(CCNc2ncnc3sc(C(=O)N4CCCCC4)c(C)c23)cc1OC | 2.4%
12 | COCC1CCCN(Cc2ccc3c(c2)CN(C(=O)c2cnn(C(C)C)c2)CCO3)C1 (stereo not given) | -0.2%
13 | Cn1c(-c2ccncc2)nc2cc(C(=O)N3CCCC3c3nccs3)cc(NC(=O)C3CCC3)c21 (stereo not given) | -0.2%
14 | Cc1c(C(=O)N(C)C2CCOC2)sc2ncnc(NCc3ccc4c(c3)OCO4)c12 (stereo not given) | 0.0%
15 | OC1(c2cccnc2)CCN(Cc2ccc3c(c2)CN(Cc2cc(F)ccc2F)CCO3)CC1 | -1.1%
16 | Cc1cnc(-n2ncc(C(=O)N(C)C3CCOC3)c2-c2cccs2)nc1-c1ccc(F)cc1 (stereo not given) | -0.3%
17 | Cc1cc(-c2ccnc(-n3ncc(C(=O)NCC(C)(C)N4CCOCC4)c3C)n2)c(C)s1 | -0.5%
18 | COC(=O)c1cn([C@@H]2C[C@@H](C(=O)Nc3cccc(SC)c3)N(C3CCCC3)C2)nn1 | 1.3%
19 | COc1ccc(CN2CCC3(CCC(CNC(=O)c4ccco4)O3)CC2)cc1OC (stereo not given) | 1.2%
20 | O=C(NC(c1cccnc1)C(F)(F)F)c1cnn(-c2nccc(-c3cccs3)n2)c1C1CC1 (stereo not given) | 2.2%
21 | CCc1cc(C(=O)NCC2Cc3cc(-c4ccccc4C(C)=O)ccc3O2)no1 (stereo not given) | 0.2%
22 | COC(=O)c1ccccc1C(=O)N1CCc2c(cnc(C)c2CNC(=O)c2ccccc2F)C1 | -0.3%
23 | C=CCSc1nnc(-c2cccc3ccccc23)o1 | -1.2%
24 | COc1ccc2cc(CNC3CCS(=O)(=O)C3)c(-c3ccc(OC)c(OC)c3)nc2c1 (stereo not given) | 0.9%
25 | CC(C)(O)C#Cc1ccc(CN2CCc3nnc(CCNC(=O)c4ccco4)n3CC2)cc1 | -0.2%
26 | C=COC(=O)N1CCN(/[N+]([O-])=N/Oc2ccc([N+](=O)[O-])cc2[N+](=O)[O-])CC1 | 1.3%
27 | Cc1ccc2nc(CNC(=O)c3cc(NC(=O)c4ccccc4)cc4ncn(C5CCCC5)c34)cn2c1 | -0.2%
28 | COc1ccccc1C1CN(Cc2cccn2-c2ncccn2)Cc2ccccc2O1 (stereo not given) | 0.6%
29 | COc1cc(=O)n2c(c1C(=O)NC(C)c1ccco1)CCN(Cc1cc3ccccc3o1)CC2 (stereo not given) | -0.3%
30 | Cc1nn(-c2ccccc2)c(C)c1CC(=O)NCC1Cc2cc(F)cc(-c3cccnc3)c2O1 (stereo not given) | 0.1%
31 | COc1ccc(CC2NCCC3=CC(=O)CCC32)cc1O (stereo not given) | 0.0%
32 | Cc1c(C(=O)N2CCCCC2)sc2ncnc(NCCc3ccccn3)c12 | 0.1%
33 | CN(C)CC(C)(O)c1ccc2c(c1)CN(C(=O)c1ccc(-n3cccn3)cc1)CCO2 (stereo not given) | -1.3%
34 | O=C(NCC1Cc2cccc(-c3cccnc3)c2O1)c1ccc2cc[nH]c2c1 (stereo not given) | 0.2%
35 | CC(C)Oc1ccc(C(=O)NCC2Cc3cc(Cl)cc(-c4ncccn4)c3O2)cc1 (stereo not given) | 0.3%
36 | CCC1CN(CCNC(=O)c2cc(C(C)C)nn2C)Cc2cc(OC)ccc2O1 (stereo not given) | 1.0%
37 | Cc1oc(-c2cccc(NC(=O)c3ccccn3)c2)nc1CNC(=O)c1ccc(C(F)(F)F)cc1 | 1.2%
38 | Cc1cccc(Nc2nc(NCCO)nc(N3CCCC3)n2)c1 | 0.8%
39 | Cc1nc(NCc2c(C)nn(C)c2Cl)sc1-c1ccn(CC2COc3ccccc3O2)n1 (stereo not given) | -0.5%
40 | c1ccc(CCc2nnc3n2CCN(Cc2ccc4ccccc4n2)CC3)cc1 | 1.5%
41 | Cc1ccc(C(=O)Nc2cnn(-c3ccc(C(=O)NCc4nc(-c5ccccc5)n[nH]4)cc3)c2)c(C)c1 | -0.3%
42 | Cc1ccc(C(=O)N(Cc2cc3cc4c(cc3nc2N2CCOCC2)CCC4)CC2CCCO2)s1 (stereo not given) | -0.7%
43 | Cc1ncc2c(c1CNS(=O)(=O)c1cccs1)CCN(C(=O)/C=C/c1cc(F)cc(F)c1)C2 | 0.0%
44 | Cc1cccc2nc(CNC(=O)CN3Cc4cc(Cl)ccc4OC(C)C3)cn12 (stereo not given) | -0.4%
45 | CCc1noc(C)c1C(=O)N1CCOc2ccc(CN3CCCC(C(=O)c4cccnc4)C3)cc2C1 (stereo not given) | -0.6%
46 | O=C(c1ccc2c(c1)OCO2)N(Cc1cc2ccc(F)cc2nc1N1CCC(O)CC1)CC1CCCO1 (stereo not given) | 0.2%
47 | COc1ccccc1CN1CCOc2ccc(CN3CCCCC3CO)cc2C1 (stereo not given) | -0.7%
48 | COc1cc(=O)n2c(c1C(=O)NCc1cccc(F)c1)CCN(Cc1cccnc1)CC2 | 0.8%

Arranged by the number under PINK1 modulator (lowest first): some entries from above
cpd	mol	PINK1 modulator
42	Cc1ccc(C(=O)N(Cc2cc3cc4c(cc3nc2N2CCOCC2)CCC4)CC2CCCO2)s1 (stereo not given)	-0.7%
45	CCc1noc(C)c1C(=O)N1CCOc2ccc(CN3CCCC(C(=O)c4cccnc4)C3)cc2C1 (stereo not given)	-0.6%
44	Cc1cccc2nc(CNC(=O)CN3Cc4cc(Cl)ccc4OC(C)C3)cn12 (stereo not given)	-0.4%
41	Cc1ccc(C(=O)Nc2cnn(-c3ccc(C(=O)NCc4nc(-c5ccccc5)n[nH]4)cc3)c2)c(C)c1	-0.3%
43	Cc1ncc2c(c1CNS(=O)(=O)c1cccs1)CCN(C(=O)/C=C/c1cc(F)cc(F)c1)C2	0.0%
37	Cc1oc(-c2cccc(NC(=O)c3ccccn3)c2)nc1CNC(=O)c1ccc(C(F)(F)F)cc1	1.2%

(more compounds)
No. | molecule | PINK1 modulator
49 | Cc1c(C(=O)NCC2CCCN(C)C2)cnn1-c1nccc(-c2ccco2)n1 (stereo not given) | 0.6%
50 | COc1ccc(CN2C(=O)[C@H]3Cc4c([nH]c5ccccc45)C(C)(C)N3C2=O)cc1 | 4.9%
51 | COc1ccccc1CCNc1ncnc2sc(C(=O)N3CCCC3)c(C)c12 | 0.3%
52 | CSc1nnc(CNC(=O)c2c(-c3ccccc3)noc2C)n1-c1ccc(F)cc1 | 0.7%
53 | COc1ccc(CN2CCC(n3cc(C(=O)N4CCCCC4)nn3)CC2)c(OC)c1 | 0.4%
54 | Cc1c(C(=O)NCCc2cccnc2)cnn1-c1ncc2c(n1)-c1ccccc1CC2 | 0.8%
55 | O=C(N[C@@H]1c2ccccc2C2(CCN(C(=O)c3ccc4c(c3)OCCO4)CC2)[C@H]1O)c1cccnc1 | -0.2%
56 | CC1(C)CC(C(=O)N2CCOc3ccc(CN4CCN(Cc5ccccn5)CC4)cc3C2)CCO1 (stereo not given) | -0.4%
57 | CC(c1ccon1)N(C)C(=O)c1cnn(-c2ncc3c(n2)-c2ccccc2CC3)c1C1CC1 (stereo not given) | 0.4%
58 | COc1ccc2ccccc2c1CN1CCc2nnc(C(NS(C)(=O)=O)C(C)C)n2CC1 (stereo not given) | 1.2%
59 | COCc1c(C(=O)N2CCN(C)CC2)cnn1-c1ncc2c(n1)-c1ccccc1CCC2 | 0.1%
60 | CC(C)(C)[C@H](NC(=O)c1ccc(N)c(Cl)c1)C(=O)N1CCC[C@H]1C(=O)N[C@H](C#N)CC(=O)O | 3.1%
61 | COCc1ccc(CN2CCOc3c(cc(-c4ccc(SC)cc4)cc3OC)C2)o1 | -0.4%
62 | CN(Cc1cccc2ncccc12)C(=O)c1cnn(-c2nccc(-c3ccccc3F)n2)c1C1CC1 | -0.7%
63 | O=C(NC1CCCC1)c1cn(C2CCN(Cc3cccc4cccnc34)CC2)nn1 | -0.7%
64 | Cc1c(C(=O)N2CCCC(c3ccccc3)C2)sc2ncnc(NCCc3ccccn3)c12 (stereo not given) | -0.2%
65 | C=CCNc1oc(-c2ccc(Cl)cc2)nc1C#N | 0.9%
66 | O=C(c1cccnc1)C1CCCN(Cc2ccc3c(c2)CN(C(=O)c2cnccn2)CCO3)C1 (stereo not given) | 0.1%
67 | CSc1ncc(CNc2cc([N+](=O)[O-])ccc2C)c(N)n1 | 6.1%
68 | Cc1ccc2c(c1)CN(C(=O)CC(c1ccccc1)c1ccco1)CC(C)O2 (stereo not given) | -0.2%
69 | COc1ccccc1C1CN(Cc2cccc(C)n2)Cc2ccccc2O1 (stereo not given) | 2.8%
70 | O=S(=O)(NC1CCN(S(=O)(=O)c2ccc3c(c2)OCCO3)C1)c1c(F)cccc1F (stereo not given) | -0.2%
71 | CCn1cnc2c(NCCc3cccnc3)nc(C#N)nc21 | 0.7%
72 | Cc1c(CN2CCOc3c(cc(-c4ncc(C(F)(F)F)cc4Cl)cc3OCC3CCCO3)C2)cnn1C (stereo not given) | 0.7%
73 | CN(CC1COCCO1)C(=O)c1cnn(-c2ncc3c(n2)-c2ccccc2CCC3)c1C1CC1 (stereo not given) | 0.0%
74 | CC(NC(=O)c1cc(F)ccc1F)c1nnc2n1CCN(Cc1ccco1)CC2 (stereo not given) | 0.9%
75 | COc1cccc(CNC(=O)c2c(OC)cc(=O)n3c2CCN(C(=O)c2csc(C)n2)CC3)c1 | 3.0%
76 | CCc1cc(C(=O)NCc2c(C)ncc3c2CCN(C(=O)C2=CCCC2)C3)no1 | -0.2%
77 | Cc1cccc2cc(CN(CC3CCCO3)C(=O)C3CC3)c(N(C)C)nc12 (stereo not given) | 0.7%
78 | COC(=O)c1c(OCc2ccccn2)cc(=O)n2c1CCN(C(=O)c1n[nH]c3c1CCCC3)CC2 | 0.2%
79 | COc1ccc(CN2CCOc3ccc(CN4CCC(Oc5cccnc5)CC4)cc3C2)c(F)c1 | 1.0%
80 | COc1ccc(CN2CCc3nnc(CNC(=O)c4cc(C)oc4C)n3CC2)c2ccccc12 | 0.1%
81 | CC1CN(CCC(=O)NCc2ccc3ncccc3c2)Cc2cc(Cl)ccc2O1 (stereo not given) | 0.1%
82 | Cn1nnnc1Sc1ncnc2scc(-c3ccccc3Cl)c12 | 0.8%
83 | CSc1ncccc1C(=O)NCC1Cc2cc(-c3cnccn3)cc(Cl)c2O1 (stereo not given) | 0.2%
84 | COc1ncccc1C(=O)N1CCOc2ccc(C(O)C(c3ccccc3)c3ccccc3)cc2C1 (stereo not given) | 0.2%
85 | CCOC(=O)c1sc(SCc2ccccc2)c2c1CC(C)(C)CC2=O | 0.9%
86 | Cc1ccccc1C(=O)NC(C)c1nnc2n1CCN(Cc1ccccc1F)CC2 (stereo not given) | 0.2%
87 | O=C(Cc1cscn1)N1CCOc2ccc(CN3CCN(c4ccccn4)CC3)cc2C1 | -0.8%
88 | Cc1csc(CNc2ncnc3ccc(-c4ccc5c(c4)OCO5)cc23)c1 | 26%
89 | Cc1cc(C)nc(-c2cccc3c2OC(CNC(=O)C2CCOC2)C3)n1 (stereo not given) | 0.6%
90 | COc1cc(CN2CCOc3ccc(CN4CCC(Oc5cccnc5)CC4)cc3C2)ccc1F | -0.5%
91 | CC(=O)NCCNC(=O)c1cnn(-c2nccc(-c3cc(C)sc3C)n2)c1C | 0.7%
92 | CC(=O)c1ccc(C(=O)NCc2nc(-c3ccccc3NC(=O)c3cc(C)oc3C)oc2C)cc1 | -1.1%
93 | O=C1CCc2cc(S(=O)(=O)Nc3cccc(Cl)c3)ccc2N1 | 3.2%
94 | Oc1cc(Nc2ccncc2)cc2cccnc12 | 0.1%
95 | COc1cc(OC)c(OC)cc1CN1CCOc2ccc(CN3CCN(C(C)=O)CC3)cc2C1 | -0.3%
96 | CCC1CN(CC(=O)NCc2n[nH]c3c2CCCCC3)Cc2cc(OC)ccc2O1 (stereo not given) | -0.2%
97 | O=C(c1ccccc1-n1cccn1)N1CCOc2c(cc(-c3ncc(C(F)(F)F)cc3Cl)cc2OCC2CCCO2)C1 (stereo not given) | -0.7%
98 | COc1cccc(-c2ccc(O)c(CNC(c3ccccc3)c3ccc(Cl)cc3)c2)n1 (stereo not given) | 0.3%
99 | CCN1CCN(C(=O)c2cnn(-c3ncc4c(n3)-c3ccccc3CCC4)c2COC)CC1 | 0.4%

High-throughput results as filed in PubChem BioAssay.
